VCAM-1 down – inhibitors of TNFa-induced VCAM-1 surface display, cell-based, plate reader, pooled HUVEC, TNFa stimulus (AID 454) | HUVEC TNFa-induced VCAM-1 surface immunofluorescence, plate reader; numbers were filed only for top-ranked candidate wells | inhibition, % at 5 µM | 10,000 compounds, 0.2% hits;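 active means compound among top-ranked inhibitors of TNF-induced VCAM-1 adhesion protein staining, with the hit upheld by image or statistical review; inactive means the rest, including hits rejected on review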;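 further: 0% = TNFa with vehicle and 100% = cells without TNFa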
FPRL1 ligand – human FPRL1 ligands by binding competition, primary screen, cell-based, FPR counter-screen, flow cytometry; FPRL1-expressing cells, fluorescent ligand binding inhibition; inhibition, %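 (tested at 6.7 µM)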; 24,000 compounds, 0.3% hits;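 further: 0% = buffer alone and 100% = receptor blocker peptide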
Target sequence (P25090 whole entry, looked up): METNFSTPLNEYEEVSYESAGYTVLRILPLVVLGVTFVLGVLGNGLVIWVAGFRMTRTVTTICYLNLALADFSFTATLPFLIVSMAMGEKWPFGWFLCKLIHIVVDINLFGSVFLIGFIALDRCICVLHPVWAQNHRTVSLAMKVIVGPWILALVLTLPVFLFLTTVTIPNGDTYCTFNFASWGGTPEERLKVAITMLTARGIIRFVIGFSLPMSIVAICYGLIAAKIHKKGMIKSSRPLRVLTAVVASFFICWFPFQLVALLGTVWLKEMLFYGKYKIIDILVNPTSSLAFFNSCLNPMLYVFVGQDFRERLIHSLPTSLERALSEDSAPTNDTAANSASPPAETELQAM
FPR binder – human FPR ligands by binding competition, primary screen, cell-based, FPRL1 counter-screen, flow cytometry; fMet-Leu-Phe receptor (Homo sapiens), P21462; FPR-expressing cells, fluorescent ligand binding; inhibition, %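 (tested at 6.7 µM)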; 24,000 compounds, 0.74% hits; AID 440, 2006;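 further: 0% = buffer wells and 100% = receptor blocker peptide wells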
Target sequence (P21462 whole entry, looked up): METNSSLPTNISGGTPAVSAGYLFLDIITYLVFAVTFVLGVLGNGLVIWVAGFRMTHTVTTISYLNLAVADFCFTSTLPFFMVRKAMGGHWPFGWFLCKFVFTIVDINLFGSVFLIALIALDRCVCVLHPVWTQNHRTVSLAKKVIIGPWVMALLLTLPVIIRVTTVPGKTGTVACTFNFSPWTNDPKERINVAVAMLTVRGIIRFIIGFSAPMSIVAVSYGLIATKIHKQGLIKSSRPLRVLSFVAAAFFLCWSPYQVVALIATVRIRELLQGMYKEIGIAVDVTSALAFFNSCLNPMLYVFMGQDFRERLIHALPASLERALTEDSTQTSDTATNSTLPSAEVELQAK
VCAM-1 imaging – inhibitors of TNFa-induced VCAM-1 surface display, imaging, high-content imaging, pooled HUVEC, TNFa stimulus (AID 456); HUVEC TNFa-induced VCAM-1 surface expression, immunofluorescence imaging; numbers were filed only for top-ranked candidate wells; inhibition, % at 5 µM, or IC50 in µM where a hit was titrated; 10,000 compounds, 0.2% hits;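 active means top tenth filtered wells with inhibition above zero that passed visual or statistical confirmation; inactive means the rest, including hits rejected on review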;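 further: 0% = stimulated vehicle wells and 100% = unstimulated cells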
VCAM-1 up imaging – enhancers of VCAM-1 display on endothelial cells, imaging, high-content imaging, pooled HUVEC, TNFa stimulus (AID 457); Pooled HUVEC, TNFa-induced VCAM-1 immunofluorescence imaging; hits of this screen are not shown here; calls only; 10,000 compounds, 0.2% hits;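 active means a top-ranked rise in VCAM-1 staining upheld on image or statistical review; inactive means the rest, including candidates rejected on review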;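 further: compounds tested at 5 µM in the well; cells exposed to compound for 24 hours before fixing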
The depositor's hits bear a star; i = inactive; . = not tested or not shown.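 How the source made its calls, unless noted: active means mean above 30%; inconclusive means self-fluorescent; inactive means the rest.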 Only part of the results is shown, so the mix of outcomes need not match the whole.

SMILES	VCAM-1 down	FPRL1 ligand	FPR binder	VCAM-1 imaging	VCAM-1 up imaging
N#Cc1c(NC(=O)c2cc(C3CC3)on2)sc2c1CCC2	.	-8.9	8.1	.	.
CCN(CCCNC(=O)CCc1nc(-c2ccc(C)cc2)no1)c1cccc(C)c1	.	-7.6	0.8	.	.
COCCNC(=O)NC1(C(F)(F)F)Oc2ccc(Cl)cc2O1 (stereo not drawn)	.	-0.5	-8.0	.	.
CCOc1ccc(C(=O)Nc2c3c(nn2-c2cccc(Cl)c2)CS(=O)C3)cc1 (stereo not drawn)	.	-2.3	1.0	.	.
CCOc1ccc(CCNS(=O)(=O)c2cnc[nH]2)cc1OCC	.	-1.6	3.3	.	.
CCOC(=O)c1c(NC(=O)CSc2nnc(-c3cccnc3)o2)sc(C)c1C	i	-1.4	-1.9	i	i
Cc1oc(-c2ccccc2F)nc1CN1CCC(C(=O)NCc2cccs2)CC1	.	-1.8	-7.9	.	.
COc1cc2c(=O)n(Cc3ccco3)c(=O)n(CC(=O)c3cccc(Br)c3)c2cc1OC	.	-9.5	1.1	.	.
CCOc1ccc2nc(S(N)(=O)=O)sc2c1	i	-4.8	-1.6	i	i
CCCN(CCC)S(=O)(=O)c1ccc(NS(C)(=O)=O)cc1	i	1.3	2.6	i	i
CCOC(=O)c1c(NC(=O)c2cccs2)sc(C)c1C	i	0.9	8.6	i	i
Cc1ccc2c(c1)-c1cc(C)nn1C(c1ccc3c(c1)OCO3)N2 (stereo not drawn)	i	-9.9	-4.7	i	i
Cc1ccc(C2N(c3nccs3)C(=O)C3CCCN32)cc1 (stereo not drawn)	.	1.6	-0.1	.	.
COC(=O)C1Cc2c([nH]c3ccccc23)C(C)N1 (stereo not drawn)	.	-3.5	-6.2	.	.
Cc1ccc(CN2CCSc3ccc(C(=O)N4CCN(c5ncccn5)CC4)cc32)cc1	.	-15.5	-0.5	.	.
COc1ccc(-n2ccnc2SCC(=O)Nc2ccc(OC)cc2OC)cc1	.	-2.2	-2.1	.	.
O=C(O)CCc1ccc(-c2cccs2)n1-c1ccc(C(=O)O)cc1	.	2.5	6.3	.	.
CCOC(=O)CC(=O)CSc1nc(-c2cccnc2)cc(C)c1C#N	.	3.0	-1.1	.	.
COc1ccc(C2CC(c3ccccc3C)n3nc(N)nc3N2)cc1 (stereo not drawn)	.	0.9	4.6	.	.
CCN(CC)CCCNC(=O)Cn1ncc2c(=O)oc3ccc(C)cc3c21	.	-0.8	-2.7	.	.
CCOC(=O)N1CCN(C(=O)c2ccc3c(c2)sc2nc(-c4ccccc4)cn23)CC1	.	0.0	-4.4	.	.
COc1cccc(C2C(C(N)=O)=C(C)Nc3nc(CCCO)nn32)c1OC (stereo not drawn)	i	7.6	-0.9	i	i
O=C(c1cc2c(=O)oc3ccccc3c2s1)N1CCOCC1	.	1.1	-1.8	.	.
Cc1oc(-c2ccc(Cl)cc2)[n+]([O-])c1C	.	-2.9	-2.3	.	.
COc1ccc(N2Cc3cccc(C(=O)N4CCN(C(=O)c5ccco5)CC4)c3C2=O)cc1	.	-1.8	-5.5	.	.
Cc1csc2nc(CSc3ccc(Cl)cc3)cn12	i	1.1	-0.7	i	i
CC1CCN(C(=O)C2CCN(C(=O)c3cc4sccc4n3Cc3ccc(F)cc3)CC2)CC1	.	-8.6	0.9	.	.
O=C(NCC(c1cccnc1)N1CCN(c2ccccc2F)CC1)c1cccc(Cl)c1 (stereo not drawn)	.	-1.8	-2.4	.	.
COC(=O)c1cc(Br)c(=O)n(-c2nccs2)c1	i	-4.3	-6.7	i	i
CC(=O)Nc1ccc(NC(=O)c2ccccc2N(C)S(C)(=O)=O)cc1	i	-2.4	-4.1	i	i
COC(=O)c1nnn(-c2ccccc2)c1N	i	-1.4	-4.5	i	i
O=C(NCc1cccs1)C1CCN(c2nc3ccccc3o2)CC1	.	-2.9	-1.0	.	.
O=C(O)C1CCCCC1C(=O)Nc1cnn(Cc2ccccc2)c1 (stereo not drawn)	.	-2.4	1.5	.	.
O=C(Nc1ccc2c(c1)C(=O)N(C1CCCCC1)C2=O)C1CCCO1 (stereo not drawn)	i	-4.5	-4.3	i	i
COc1nnc(OC)c2ccccc12	.	-4.9	0.4	.	.
O=C(C1CCC(=O)N1Cc1cccnc1)N1CCN(c2ccc(F)cc2)CC1 (stereo not drawn)	.	-0.4	-5.9	.	.
COc1cccc(Cn2c(=S)[nH]c3ccc(N4CCOCC4)cc3c2=O)c1	.	-4.3	-4.1	.	.
CCCS(=O)(=O)NCCc1cc2c(OC)ccc(OC)c2[nH]c1=O	.	-5.3	-3.6	.	.
C=CCn1c(=N)c(C(=O)NCCCOC)cc2c(=O)n3cc(C)ccc3nc21	.	4.2	6.2	.	.
Cc1oc(-c2ccc(Cl)cc2)nc1CN1CCC(C(=O)NCc2cccnc2)CC1	.	1.4	-2.8	.	.
O=C(CSc1nc2c(sc3ccccc32)c(=O)n1Cc1ccco1)NCC1CCCO1 (stereo not drawn)	i	-6.4	2.2	i	i
Cc1cc2cc(CNC(=O)CC(C)C)ccc2n1C	.	12.0	0.7	.	.
CCOC(=O)c1[nH]c(C)c(C(=O)N(C)Cc2ccccc2)c1C	.	-0.3	-3.9	.	.
O=C(CN1CCN(CCC(=O)Nc2ccccc2F)CC1)Nc1ccc(Cl)cc1	.	2.8	-4.0	.	.
O=C(CCn1cccc1)NCCc1ccc(Cl)cc1	.	0.6	-1.0	.	.
CC(=O)Nc1cccc(Oc2nc(C)cc(C)c2C#N)c1	i	2.4	0.9	i	i
O=C(NCc1cccnc1)c1cccc(C(F)(F)F)c1	i	0.0	-8.9	i	i
CC1(C)Cc2noc(N)c2C(C)(C)N1OC(=O)c1scc2c1OCCO2	.	8.5	-3.0	.	.
CN1CCN(C2=C(Cl)C(=O)N(c3cccc(Cl)c3)C2=O)CC1	i	10.8	3.5	i	i
CCSC1=C(C#N)C(c2ccccc2OC)CC(=O)N1 (stereo not drawn)	i	4.2	-6.3	i	i
CCCc1cc(C(=O)Nc2cc(C)nn2-c2ccccc2)no1	.	-1.6	-1.1	.	.
Cc1c(NC(=O)CN2c3cccc4cccc(c34)S2(=O)=O)c(=O)n(-c2ccccc2)n1C	i	0.9	0.8	i	i
COc1ccc(C2C3=C(CCCC3=O)Nc3nc4ccccc4n32)c(OC)c1OC (stereo not drawn)	.	-1.4	-7.5	.	.
CCOc1ccccc1Nc1nc2ccccc2[nH]1	i	2.9	-1.0	i	i
Cc1oc(-c2ccc(Cl)cc2)nc1CN1CCCC(C(=O)N2CCN(C(=O)c3ccco3)CC2)C1 (stereo not drawn)	.	1.2	-1.1	.	.
O=C(NC12CC3CC(CC(C3)C1)C2)c1cncc(O)c1	i	-6.8	5.7	i	i
c1cn2cc(-c3ccc4c(c3)OCO4)nc2s1	.	3.3	-7.7	.	.
NC(=O)C1CCN(C(=O)CCCCCn2c(=O)[nH]c3ccsc3c2=O)CC1	.	-1.9	-9.0	.	.
CCOC(=O)CCc1c(C)n(CC)c2cc(-c3ccccc3OC)nn2c1=O	.	6.5	-1.1	.	.
CN1CCN(CC(O)COc2ccc(OCC(O)CN3CCN(C)CC3)cc2)CC1 (stereo not drawn)	.	5.3	-3.1	.	.

Three entries out of the list, ordered by count of non-hydrogen atoms, ascending.
SMILES	VCAM-1 down	FPRL1 ligand	FPR binder	VCAM-1 imaging	VCAM-1 up imaging
O=C(NCc1cccnc1)c1cccc(C(F)(F)F)c1	i	0.0	-8.9	i	i
CCCc1cc(C(=O)Nc2cc(C)nn2-c2ccccc2)no1	.	-1.6	-1.1	.	.
NC(=O)C1CCN(C(=O)CCCCCn2c(=O)[nH]c3ccsc3c2=O)CC1	.	-1.9	-9.0	.	.

More results
SMILES	VCAM-1 down	FPRL1 ligand	FPR binder	VCAM-1 imaging	VCAM-1 up imaging
Cn1c(=O)cc(OCCCC(=O)NCCCN2CCN(Cc3ccccc3)CC2)c2ccccc21	.	-3.2	-6.8	.	.
CCOC(=O)c1sc2nc(SCC#N)n(CCCN3CCCC3=O)c(=O)c2c1C	i	-3.2	1.5	i	i
Cc1ccc2nc(-c3ccc4c(c3)OCCO4)cc(C(=O)O)c2c1	i	-2.5	-2.0	i	i
O=C(Nc1nccs1)c1ccc(COc2ccccc2Br)o1	i	2.6	-11.1	i	i
C=CCOc1cccc(C2/C(=C(/O)c3ccc(F)cc3)C(=O)C(=O)N2CCN2CCOCC2)c1 (stereo not drawn)	.	-3.1	1.9	.	.
COC(=O)C(C)n1cnc2c(nnn2Cc2ccc(Cl)cc2)c1=O (stereo not drawn)	.	-2.9	-0.8	.	.
COc1ccc(N2CCN(C(=O)CSc3nnc4n3C(C)(C)Cc3ccccc3-4)CC2)cc1	i	-6.7	-3.0	i	i
Cc1ccc(S(=O)(=O)C2(C(=O)Nc3cccc(F)c3)CC2)cc1	.	3.1	-5.4	.	.
CCCCCCNS(=O)(=O)c1ccc(OC)c(OC)c1	.	-3.3	-0.9	.	.
CCOc1ccc(C(=O)N2CCC(C(=O)c3ccc4c(c3)OCCO4)CC2)cc1	i	-3.3	1.5	i	i
CN1CCN(CC#CCC(O)(c2ccccc2)C2CCCC2)CC1 (stereo not drawn)	i	1.3	-1.0	i	i
CCOCCCNC(=O)C1CCN(S(=O)(=O)c2c(C)noc2/C=C\c2ccc(OC)cc2)CC1	i	-1.4	0.7	i	i
COc1cccc(OCC(O)CN2C(C)CCCC2C)c1 (stereo not drawn)	.	-1.5	-2.9	.	.
CC(=O)OCC(=O)[C@@]12OC3(CCCC3)O[C@@H]1C[C@H]1[C@@H]3CCC4=CC(=O)C=C[C@]4(C)[C@@]3(F)[C@@H](O)C[C@@]12C	i	-1.4	-6.4	i	i
Cc1ccc(S(=O)(=O)NCCC(=O)OCn2nnc3ccccc3c2=O)cc1	i	4.9	4.1	i	i
COc1ccccc1-c1noc(-c2ccco2)n1	i	-20.2	-12.7	i	i
O=C(CSc1nc2ccsc2c(=O)n1NC(=O)c1ccccc1)NCc1ccco1	.	8.6	7.8	.	.
CCN(CC)CCN1C(=O)C(O)=C(C(=O)c2cccs2)C1c1ccccn1 (stereo not drawn)	i	-1.1	-4.6	i	i
COc1cc(OC)nc(NC(=O)C(C)C)n1	.	-1.5	-2.0	.	.
CN(C)c1ccc(NC(=O)Cn2c(=O)n(Cc3ccccc3)c(=O)c3ccccc32)cc1	.	-3.8	-3.5	.	.
O=C1CN(C(=O)c2ccco2)C(c2ccccc2)c2cc(Cl)ccc2N1 (stereo not drawn)	.	-2.9	-0.5	.	.
CCOC(=O)N1CCC(N2Cc3cccc(C(=O)NCc4ccccc4OC)c3C2=O)CC1	.	4.0	-5.1	.	.
COc1cccc(CN=CC2=C(O)CC(C)(C)CC2=O)c1OC	i	-1.4	-6.1	i	i
Cc1[nH]n2c(=O)cc(Cc3ccccc3)nc2c1C#N	i	-2.2	7.1	i	i
CCn1c(Cc2ccccc2)nnc1SCC(=O)Nc1ccc(N2CCOCC2)c(Cl)c1	i	-3.4	1.2	i	i
CCOC(=O)N1CCN(C(=O)CCc2nc3sc4c(c3c(=O)[nH]2)CCCC4)CC1	.	-5.3	-3.2	.	.
Cc1cc(=O)n(-c2ccc(O)cc2)[nH]1	.	1.0	-5.6	.	.
Cc1nc2nc(C)c(CCC(=O)NCCC3=CCCCC3)c(C)n2n1	.	-2.8	-6.3	.	.
CCOC(=O)C(NS(=O)(=O)c1ccc(Br)cc1)C(C)C (stereo not drawn)	.	10.4	-1.1	.	.
Cc1cc(NC(=O)c2noc3c2CCCCC3)no1	.	4.3	4.1	.	.
N#CCSc1nc2ccc(N3CCCCC3)cc2c(=O)n1Cc1ccccc1	.	-0.6	3.1	.	.
C=CCOc1cccc(C2C(C(=O)c3ccc(C)o3)=C(O)C(=O)N2c2nccs2)c1 (stereo not drawn)	.	-4.5	2.5	.	.
CCOC(=O)CSc1nc2cccnc2n1-c1ccc(F)cc1	i	-0.1	-2.9	i	i
COCCNC(=O)c1ccc(CS(=O)(=O)c2c(Cl)cccc2Cl)o1	i	4.2	-1.4	i	i
CCn1c(C)cc(=S)c2ccccc21	i	-2.2	4.9	72.5%	i

Fetched by structure from the entries so far, 4 records:
SMILES	VCAM-1 down	FPRL1 ligand	FPR binder	VCAM-1 imaging	VCAM-1 up imaging
Cc1[nH]n2c(=O)cc(Cc3ccccc3)nc2c1C#N	i	-2.2	7.1	i	i
Cc1cc(NC(=O)c2noc3c2CCCCC3)no1	.	4.3	4.1	.	.
N#CCSc1nc2ccc(N3CCCCC3)cc2c(=O)n1Cc1ccccc1	.	-0.6	3.1	.	.
Cc1cc(=O)n(-c2ccc(O)cc2)[nH]1	.	1.0	-5.6	.	.
